# Screening results as filed in PubChem BioAssay.
# HNF4A DNA FP: change in binding of human HNF4 alpha to DNA; P41235; HNF4a-FITC DNA binding, fluorescence polarization, 1 h; activity change, % at 10 µM; 360,000 compounds, 0.3% hits; AID 1224865; in the data active means activity change above about 30%, passing the limit was not always enough;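 further: controls were the assay level and a saturating level of protein; the project sought stronger binding though the title names inhibitors; some compounds called inactive have numbers as strong as hits; positive values seem to mean higher polarization but the record does not say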
# Target sequence (P41235 whole entry, looked up): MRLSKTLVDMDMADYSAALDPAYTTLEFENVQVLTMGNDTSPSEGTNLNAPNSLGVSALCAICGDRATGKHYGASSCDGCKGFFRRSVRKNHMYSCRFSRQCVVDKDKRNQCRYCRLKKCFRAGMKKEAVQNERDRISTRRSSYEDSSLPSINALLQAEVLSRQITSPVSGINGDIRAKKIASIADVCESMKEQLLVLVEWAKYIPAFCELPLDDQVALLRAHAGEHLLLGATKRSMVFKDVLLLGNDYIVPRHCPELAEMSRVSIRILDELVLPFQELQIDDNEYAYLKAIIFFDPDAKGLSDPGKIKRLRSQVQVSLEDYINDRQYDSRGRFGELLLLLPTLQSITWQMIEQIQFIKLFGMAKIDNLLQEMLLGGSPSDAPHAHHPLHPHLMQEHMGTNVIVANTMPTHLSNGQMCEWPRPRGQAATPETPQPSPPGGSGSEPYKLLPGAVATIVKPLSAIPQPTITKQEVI
# UCH37 inh: human UCH37 deubiquitinating enzyme inhibition; Q9Y5K5; purified proteasome/UCH37, Ub-AMC cleavage fluorescence; 330,000 compounds, 0.33% hits; inhibition, % (concentration not given with the values);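 active means mean of two replicates above 20%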;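 further: 0% = compound-free wells with enzyme and 100% = wells lacking proteasome; stock transfer was 100 nL into about 20 µL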
#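 Material: human UCH37 enzyme supplied as purified proteasome complex. Measure: % inhibition of Ub-AMC cleavage fluorescence. Medium: pH 7.4 Tris-HCl (50 mM) with ovalbumin, ATP-MgCl2, DTT. Times: 30 min preincubation with enzyme, 25 min cleavage at room temperature. Detection: AMC fluorescence intensity at 355/460 nm.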
# Bfl-1 A1 inh: inhibitors of the anti-apoptotic protein A1, read as caspase activation; AID 2462; 330,000 compounds, 0.066% hits; MEF A1-2A-BIM cells, Caspase-Glo 3/7 luminescence, 3 h; percent of clofoctol response, vehicle zero; caspase activation, % (no concentration beside the values);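 active means over half of replicate activation scores above 10%, or exactly half above 10 with the replicate mean above 10; inconclusive means replicate mean below 10 yet half the replicates above 10; inactive means over half of replicates below 10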;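 further: wells of about 30 µL received 50 nL stock; many hits fall short of the cut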
# E coli growth: blocks Escherichia coli growth. OD600, 23 h; active compounds read low. OD600 absorbance (concentration not given with the values). 330,000 compounds, 0.21% hits. AID 1053175;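 active means OD600 absorbance below the run mean of sample wells minus 3.6 SD, in any replicate, cut at about 0.56 in these data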;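 further: stock transfer was 300 nL into about 60 µL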
# LANA-H2A inh: blocks KSHV LANA binding to histone H2A/H2B; Q9QR71; cell-free LANA-H2A/H2B peptide, fluorescence polarization; inhibition, % (no concentration beside the values); 320,000 compounds, 0.6% hits; in the data active means inhibition mostly above about 10%, no sharp cut-off; inactive means mostly below about 6.7%;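 further: stock transfer was 7.5 nL into about 10 µL; 0% = median of vehicle wells and 100% = median of positive control wells; one replicate is shown; the record names a cut of 25% in any replicate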
# Vif TR-FRET: inhibitors of Vif binding to APOBEC3G peptide, primary screen, biochemical, TR-FRET, GST-Vif 1-94, biotin-A3G peptide, dose response retest (AID 1117319). TR-FRET GST-Vif / biotin-A3G peptide binding; higher % means a stronger effect; test concentration not given here; strong numbers were not always called active. one-dose inhibition, %; IC50 in µM for titrated hits. 260,000 compounds, 0.57% hits;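 active means above the screen mean plus three standard deviations and confirmed in dose response; inconclusive means results disagree or hit not tested in dose response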;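 further: Vif residues 1-94 fused to GST binding biotinylated APOBEC3G peptide 110-148; 0% = full assay without inhibitor and 100% = GST in place of GST-Vif; retest series ran down from 100 µM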
# B2AR ag: activates human beta-2 adrenergic receptor causing internalization; response, % (test concentration not listed); Am2.2-beta2AR cells, FAP receptor internalization, flow cytometry; reference of the scale not given here; P07550; AID 504454; 340,000 compounds, 0.43% hits;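 active means response above a set limit, near 3 SD of response in nonfluorescent compounds, cut at about 42% in these data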;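 further: stock transfer was 100 nL into about 11 µL; a reference agonist was the positive control; negative values mostly stem from fluorescent compounds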
# Target sequence (P07550 whole entry, looked up): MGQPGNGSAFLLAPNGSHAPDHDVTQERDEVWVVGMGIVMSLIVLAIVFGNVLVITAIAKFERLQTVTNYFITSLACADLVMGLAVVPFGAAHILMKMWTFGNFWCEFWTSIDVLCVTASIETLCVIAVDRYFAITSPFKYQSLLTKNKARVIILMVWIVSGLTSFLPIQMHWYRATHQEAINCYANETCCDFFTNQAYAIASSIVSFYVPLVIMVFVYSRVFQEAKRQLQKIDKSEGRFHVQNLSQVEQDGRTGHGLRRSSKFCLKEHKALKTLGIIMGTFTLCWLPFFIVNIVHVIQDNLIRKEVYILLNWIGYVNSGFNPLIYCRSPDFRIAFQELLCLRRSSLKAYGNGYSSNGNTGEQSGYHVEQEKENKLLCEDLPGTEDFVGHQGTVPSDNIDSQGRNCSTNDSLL
# * hit, by the source's call; i = inactive; ? = inconclusive; . = no result given; & = joins results of further samples.
# Sample of the layout, 2 compounds:
item	SMILES	HNF4A DNA FP	UCH37 inh	Bfl-1 A1 inh	E coli growth	LANA-H2A inh	Vif TR-FRET	B2AR ag
1	COCCCNS(=O)(=O)c1ccccc1	2.3	3.5	0.0	0.69	-3.5	3%	-14
2	COc1ccc(Cc2nc(N)nc(N)n2)cc1	-2.4	-5.2	0.8	0.75	-3.1	-1%	-5

# The whole of this part, previewed entries included:
item	SMILES	HNF4A DNA FP	UCH37 inh	Bfl-1 A1 inh	E coli growth	LANA-H2A inh	Vif TR-FRET	B2AR ag
1	COCCCNS(=O)(=O)c1ccccc1	2.3	3.5	0.0	0.69	-3.5	3%	-14
2	COc1ccc(Cc2nc(N)nc(N)n2)cc1	-2.4	-5.2	0.8	0.75	-3.1	-1%	-5
3	Cc1cc(NC(=O)c2sc(Nc3cccc(C(F)(F)F)c3)nc2N)no1	1.9	5.3	-0.2	0.78	-2.2	-1%	16
4	O=c1[nH]c(N/N=C/c2ccccc2Br)nnc1-c1ccccc1	0.1	.	-0.6	.	-2.7	33%	8
5	COc1ccc(C(=O)NCc2nnc(SCC(=O)NC3CCCCC3)o2)cc1	1.5	1.3	0.1	0.69	5.0	.	3
6	COc1ccccc1NS(=O)(=O)c1cccc(C(=O)NCC(c2ccco2)N2CCCC2)c1 (stereo unspecified)	-2.5	0.8	-1.0	0.67	-0.6	1%	-3
7	N#CC(C#N)=Cc1cccn1-c1ccc(S(N)(=O)=O)cc1	0.7	11	1.3	0.65	-5.9	-3%	7
8	CCOC(=O)c1c(/N=C/c2ccccc2O)sc2c1CCC2	4.0	.	0.3	.	0.5	.	-3
9	O=C(Cc1ccccc1)NC1(O)C(=O)c2ccccc2C1=O	0.7	.	0.2	.	-4.3	6%	2
10	CCn1c(CCC(=O)Nc2ccccc2F)nnc1SCC(=O)Nc1ccc(OC)cc1	2.2	4.5	0.7	0.67	-0.9	.	1
11	Cc1ccccc1C(=O)N1CCN(c2ccc(NC(=O)CSc3ccc(Cl)cc3)cc2)CC1	-0.6	0.7	-0.4	0.74	1.4	9%	12
12	COc1ccccc1N1CCN(C(c2cc3cc(C)ccc3[nH]c2=O)c2nnnn2C2CCCC2)CC1 (stereo unspecified)	-2.0	-4.8	0.4	0.74	1.2	19%	3
13	C=CCNC(=O)CCCOc1ccc(C)cc1	3.8	-0.7	0.9	0.77	-1.1	?	1
14	COC(=O)c1ccc(C2C(C(=O)c3cc4ccccc4o3)=C(O)C(=O)N2CCN2CCOCC2)cc1 (stereo unspecified)	2.5	4.2	0.5	0.67	-3.9	.	0
15	Cc1nnc(SCC(=O)n2c3c(c4ccccc42)CCCC3)s1	0.2	3.7	0.8	0.66	0.4	-10%	-12
16	CN1CCN(c2ccc(-c3cccc(NC(=O)COc4ccccc4)c3)nn2)CC1	1.1	4.4	-3.2	0.61	-3.3	4%	6
17	CCC(=O)Nc1cccc(-n2nnnc2SCC(=O)c2ccc(C)c(C)c2)c1	0.5	2.1	-0.1	0.71	0.8	.	-1
18	N#Cc1nc(-c2ccco2)oc1NCc1cccnc1	-1.9	-12	0.8	0.67	-2.0	31%	-13
19	NS(=O)(=O)c1ccc(CCNC(=O)CCS(=O)(=O)c2ccc(Br)cc2)cc1	-20	1.0	1.0	0.64	-2.2	25µM*	-3
20	Cc1cccc(CCNC(=O)COc2cc(=O)n(C)c3ccccc23)c1	-0.6	1.0	-0.1	0.72	-6.8	2%	3
21	CCn1c(COc2ccc(=O)n(-c3ccccc3)n2)nnc1SCc1ccccc1	3.6	4.9	-0.1	0.7	0.3	1%	-6
22	N#CC1=C(S)N(c2ccc(F)cc2)C2(CCCCC2)NC1=O	0.0	3.5	-1.5	0.71	2.0	-8%	-2
23	C/C(NCC(C)(C)CN(C)C)=C(/C#N)C(=O)NCc1ccccc1	-0.3	6.3	-0.3	0.67	2.1	-4%	-7
24	CCN(CC)CC#CCC(O)(c1ccccc1)C1CCCC1 (stereo unspecified)	-7.2	1.5	0.2	0.67	0.9	-2%	12
25	Cc1cccc(C)c1NC(=O)COC(=O)CCc1c[nH]c2ccccc12	-4.4	-1.8	-2.0	0.66	-0.8	2%	8
26	CCOC(=O)c1ccc(Oc2coc3cc(O)ccc3c2=O)cc1	1.6	-136	1.7	0.68	-2.3	.	4
27	CN(C)/C=C/C(=O)c1ccc(N2CCN(c3ncc(C(F)(F)F)cc3Cl)CC2)cc1	2.3	2.8	1.6	0.67	0.5	-48%	9
28	O=C(COc1ccccc1)Nc1cccc(-c2nc3ccccc3[nH]2)c1	0.8	-2.5	-6.9	0.59	0.8	?	5
29	COc1ccc2c(CC(=O)OCC(=O)c3ccccc3OC)coc2c1	-1.7	2.8	-0.2	0.7	-1.0	2%	-1
30	CCCCOc1ccc(C(=O)Oc2cccnc2)cc1	1.8	1.0	-0.7	0.63	-2.0	-3%	-2
31	CCOC(=O)N1CCN(S(=O)(=O)c2ccc(C)cc2)C1c1ccccc1 (stereo unspecified)	-0.9	-0.9	0.5	0.72	2.9	-11%	1
32	O=C(O)c1cc(S(=O)(=O)N2CCN(C(=O)c3ccco3)CC2)c(Cl)cc1Cl	1.3	5.8	-0.1	0.69	0.1	.	-5
33	O=C(O)c1cc(S(=O)(=O)N2CCOCC2)ccc1N1CCOCC1	1.8	0.5	0.1	0.75	-3.2	-5%	4
34	Cc1ccc(S(=O)(=O)Nc2cc(C)nn2-c2ccccc2)cc1	-0.1	-0.4	-0.1	0.71	1.4	6%	-6
35	Cc1cc(Cl)ccc1Oc1ccccc1C(=O)CC#N	-3.1	1.1	-0.2	0.67	-1.4	-6%	3
36	CCNC(=O)CN1C(=O)NC2(CCOc3ccccc32)C1=O (stereo unspecified)	2.2	0.0	1.2	0.63	4.6	.	0
37	O=C(O/N=C(\c1ccccc1)c1ccncc1)c1ccccc1F	1.7	.	-0.3	.	-2.2	0%	-3
38	CSc1nc(-c2ccccc2)nn1C(=O)c1ccc(C)cc1	-0.7	-1.3	-0.9	0.74	2.1	29%	5
39	O=c1c(-c2ccco2)[n+]([O-])c2ccccc2n1OCc1ccccc1F	0.8	-3.4	0.1	0.72	-1.8	1%	-7
40	CN(C(=O)c1cccc(NC(=O)Cc2cccc(NC(=O)C3CCN(C(=O)C4CC4)CC3)c2)c1)C1CC1	-2.9	4.0	.	0.68	.	-3%	1
41	Cc1ccccc1C(=O)NNC(=O)/C=C\C(=O)O	0.1	1.0	0.7	0.67	-2.2	-1%	3
42	Cc1cccc2cc(C#N)c(NCCNC(=S)NCCCN3CCOCC3)nc12	-2.8	-49	0.7	0.62	3.5	-6%	4
43	COc1cccc(NS(=O)(=O)c2csc(C(N)=O)c2)c1	5.2	-0.1	0.1	0.65	3.0	2%	-6
44	Cc1ccccc1NC(=O)COC(=O)CCc1c[nH]c2ccccc12	1.3	3.0	-0.2	0.64	2.4	4%	-18
45	CCOC(=O)C(NCCCO)c1ccccc1 (stereo unspecified)	-1.3	-0.6	1.4	0.69	5.4	3%	7
46	COc1ccc(N(CC(=O)NCCC2=CCCCC2)S(=O)(=O)c2ccc(C)cc2)cc1OC	-1.6	15	-0.1	0.69	2.5	9%	6
47	CC(NC(=O)[C@H](C)NC(=O)c1ccco1)c1ccc(S(N)(=O)=O)cc1 (stereo partly specified)	2.8	0.9	0.1	0.65	2.8	-9%	2
48	COc1ccccc1N1CCN(C2CCCCC2NS(=O)(=O)c2ccc(Cl)cc2)CC1 (stereo unspecified)	7.6	2.5	-0.6	0.66	6.6	-4%	15
49	CCOC(=O)Cc1csc(SCn2nnc3ccccc3c2=O)n1	0.7	4.0	-0.7	0.68	5.7	10%	-6
50	O=C(Cn1ncc2c([nH]c3ccccc32)c1=O)N1CCc2ccccc2C1	3.2	-3.8	0.6	0.68	1.5	.	3
51	CC(=O)OC1CCC(OC(C)=O)c2c1n([O-])c(C)c(C)[n+]2=O (stereo unspecified)	-3.9	-1.4	-0.7	0.74	-5.3	-3%	0
52	O=C(CSc1ccccc1F)NNC(=O)c1ccncc1	-1.1	7.1	-1.2	0.71	1.1	-17%	1
53	O=S(=O)(c1ccc(Br)s1)N1CCN(c2ncccn2)CC1	6.5	-5.1	-0.2	0.71	2.7	-6%	8
54	COc1cc(/C=N/n2cnnc2)ccc1OS(=O)(=O)c1ccccc1[N+](=O)[O-]	-1.6	.	-3.5	.	-0.2	10%	-6
55	Cc1nc(SCC#N)c2c(C)c(C)sc2n1	-1.0	-1.4	0.0	0.74	-4.6	5%	6
56	CN(CCO)CC(O)CN(c1ccccc1)c1ccccc1 (stereo unspecified)	-5.2	2.1	0.1	0.67	3.5	69%	-2
57	Clc1ccc(-c2noc3c2-c2nc(Cc4cccc5ccccc45)sc2CC3)cc1	-0.7	0.3	-0.2	0.71	-0.3	.	2
58	COc1cc(NC(=O)C2CCC(CNc3c(N4CCC(C)CC4)c(=O)c3=O)CC2)cc(OC)c1 (stereo unspecified)	0.4&0.2	4.2&4.4	-0.6	0.67&0.72	-0.3	-8%&6%	10&6
59	COC(=O)c1nc2n(n1)C(c1ccccc1OC)C1=C(CCCC1=O)N2 (stereo unspecified)	-12	5.9	0.0	0.69	-3.4	22%	-2
60	C/C(CC(C)C)=N/Nc1ccc([N+](=O)[O-])cc1[N+](=O)[O-]	-4.1	.	-2.0	.	0.3	.	6

# Further structures follow.
item	SMILES	HNF4A DNA FP	UCH37 inh	Bfl-1 A1 inh	E coli growth	LANA-H2A inh	Vif TR-FRET	B2AR ag
61	CN(C)c1ccnc(-n2cccc2/C=N/OCc2cccc(F)c2)c1C#N	1.8	.	0.0	.	7.1	1%	-3
62	Cc1c(CN2CCC(CO)(CC3CCCCO3)CC2)cnn1C (stereo unspecified)	2.6	3.7	-1.1	0.72	-5.4	15%	3
63	O=C(Nc1ccon1)c1cccc(S(=O)(=O)N2CCCCC2)c1	-1.0	0.0	1.6	0.7	2.6	-5%	-10
64	COC(=O)c1ccccc1S(=O)(=O)N1CCC(C(=O)NC2CCCCC2)CC1	-0.2	4.7	1.5	0.66	5.6	-6%	0
65	O=C(NC1CCCCC1)c1ccc(N2CCOCC2)c([N+](=O)[O-])c1	0.7	4.9	-0.3	0.65	0.4	.	14
66	Cn1ncc(Cl)c1C(=O)N1CCOCC1	-0.2	3.2	-1.2	0.69	-0.2	-11%	-3
67	CS(=O)(=O)c1ccc2nc(NC(=O)CN3CCN(Cc4ccccc4)CC3)sc2c1	-0.3	0.0	0.5	0.67	1.3	2%	15
68	O=C(COc1ccc(-c2nnco2)cc1)NC1CCS(=O)(=O)C1 (stereo unspecified)	1.2	3.1	1.5	0.69	0.5	.	-2
69	CC1(C)CCSC(/C=C/c2ccccc2)=N1	-0.1	6.7	.	0.61	.	11%	29
70	O=C(CCn1c(=O)oc2ccccc21)NCCCN1CCCC1=O	-1.1	5.9	0.3	0.77	9.2	1%	-7
71	CCc1nn(CC(=O)NCCCN2CCc3ccccc3C2)c(=O)c2cc3sccc3n12	-3.2	5.7	0.7	0.74	-1.6	-2%	-9
72	CC(C)CSC1=NSC2=NC(=O)/C(=C\c3coc4ccccc4c3=O)C(=N)N12	1.9	-12	-2.7	0.67	60*	11%	i
73	CN(C)S(=O)(=O)c1ccc(Cl)c(NC(=O)COC(=O)/C=C/c2cnc3ccccc3n2)c1	-1.0	1.2	0.6	0.67	-0.9	-3%	21
74	COc1ccc2cc(C(=O)C3CCCN(C(=O)c4cc(=O)n(C)c(=O)n4C)C3)ccc2c1 (stereo unspecified)	-1.5	.	0.3	.	-2.5	0%	-7
